# Assay outcomes deposited in PubChem BioAssay by several laboratories.
# BJeLR viability: kills HRASV12-expressing BJeLR cells. BJeLR (HRASV12) viability, CellTiter-Glo ATP luminescence, 48 h; reference of the scale not given here. AID 1554. 0.17% of 300,000 active. inhibition, % (concentration not given with the values);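 active = replicate mean above 50%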;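 note: 50 nL library stock added to about 25 µL; numbers are from one replicate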
# Autofluor counter: counter-screen for toxin protease inhibitors: compound fluorescence. fluorescence intensity (concentration not given with the values). AID 624483. 3.1% of 360,000 active. compound autofluorescence counterscreen, microsphere flow cytometry; stronger effect = higher value;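 active = at least 3 SD above the mean of all compounds, about 16000 in these data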;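 note: 100 nL of 1 mM stock went into each well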
# RN4220 kill: kills Staphylococcus aureus RN4220; AID 1259311; inhibition, % (concentration not given with the values); S. aureus RN4220 growth, OD600, 16 h; 0.33% of 330,000 active;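 active = z-score of -3 or lower and OD600 up to 0.18 on both plates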;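 note: plate controls were untreated cells for no effect and reference antibiotic for full effect; stock transfer was 100 nL into about 80 µL; one replicate is shown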
# Mtb hypoxia inh: inhibitors of hypoxia-regulated fluorescent reporter in Mycobacterium tuberculosis; M. tuberculosis hypoxia-regulated fluorescent reporter, fluorescence; 0.1% of 300,000 active; fluorescence inhibition, % (no concentration beside the values);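 active = 35 to 45% if threefold the growth effect, above 45% if 1.5-fold the growth effect; inactive = the rest, general growth blockers included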;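 note: wells of about 50 µL received 100 nL stock; 0% = vehicle wells and 100% = reference inhibitor wells; whole bacteria with a GFP reporter of the hypoxia response; strong numbers were not always called active; many hits fall short of the cut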
# Sa ugtP lethal: growth inhibition of S. aureus ugtP deletion strain. S. aureus RN4220 ugtP deletion, OD600 growth, 16 h; some inactives read as strong as hits. growth inhibition, % (test concentration not listed). 0.54% of 330,000 active. AID 1259309;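 active = z-score under -3 and OD600 up to 0.15 on both plates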;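 note: plate controls were untreated wells for no effect and antibiotic for full effect; wells of about 80 µL received 100 nL stock; the first replicate is given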
# PrP 5UTR inh: inhibition of PrP 5' UTR reporter expression | cell-based PrP 5' UTR mRNA reporter, plate reader | inhibition, % (no concentration beside the values) | 0.35% of 340,000 active;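 active = every replicate at 50% or more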;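 note: 0 = median of the neutral control wells; tested in H4 reporter cells; numbers are from one replicate; inactives centre near -14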
# Mtb hypoxia inh growth: second read-out of Mtb hypoxia inh, no call of its own (marks repeat the call); growth inhibition, %; measured here: M. tuberculosis growth (absorbance);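 0% = vehicle and 100% = reference antibiotic; read after six days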
# An asterisk follows results filed as active; / = no result given; & = joins results of further samples.
# Order of results: Mtb hypoxia inh growth	Sa ugtP lethal	BJeLR viability	PrP 5UTR inh	RN4220 kill	Mtb hypoxia inh	Autofluor counter
- CCCc1ccc(-c2cc(NC(=O)CSc3nnc(N)s3)n(-c3ccccc3)n2)cc1
→ 4	58	1	-75	-9.6	7	2055
- CCOC(=O)N1CCN(C(=O)c2ccc3c(=O)n(-c4cc(OC)ccc4OC)c(=S)[nH]c3c2)CC1
→ 2	7	0	5	1.3	-3	4485
- O=C(NCCCN1CCOCC1)c1ccc(CSc2ccc(Cl)cc2)cc1
→ 5	-1	0	-5	3.8	-4	3059
- [O-][n+]1cccc2cccc(O)c21
→ 6	1	/	-8	5.4	10	3734
- O=C1OCCC1Sc1nnc(-c2ccccc2Cl)n1Cc1ccccc1 (configuration not stated)
→ 12	10	8	-9	5.0	6	2054
- Cc1ccc(-n2c(SCC(=O)N3CCN(c4ccccn4)CC3)nnc2N2CCCC2)cc1
→ -11	-1	/	-4	3.1	-1	/
- CS(=O)(=O)N1CCCC(C(=O)Nc2ccc(F)cc2)C1 (configuration not stated)
→ 9	7	-11	-11	3.3	16	3377
- CN1CCC(C2(O)c3ccccc3CCc3ccccc32)CC1
→ 0	-1	-6	-23	2.9	0	9830
- O=C(Nc1nc2ccccc2[nH]1)c1cc(F)cc(F)c1
→ 6	-1	-5	-110	-1.8	5	4171
- O=C(CN1CCCC1)NCc1ccccc1
→ 1	8	-4	-28	3.9	8	3937

# Carrying on.
# Order of results: Mtb hypoxia inh growth	Sa ugtP lethal	BJeLR viability	PrP 5UTR inh	RN4220 kill	Mtb hypoxia inh	Autofluor counter
- COc1cccc(CC2(CO)CCCN(Cc3ccc(CN4CCCCC4)s3)C2)c1 (configuration not stated)
→ 12	-2	-2	-10	2.7	5	3506
- Cn1c(=O)c2c([nH]c(=O)n2C)n(Cc2ccccc2)c1=O
→ -1	2	-3	/	3.7	10	/
- S=c1[nH]cc(-c2ccc(Cl)cc2)n1Cc1ccccc1
→ 11	9	-34	-6	0.3	5	4430
- Cc1cc(C)c2[nH]c(=O)c(CN(CC3CCCO3)C(=O)c3cnccn3)cc2c1 (configuration not stated)
→ 11	0	-8	-8	2.2	5	2588
- COc1ccc2ccccc2c1C=NNC(=O)c1cccc([N+](=O)[O-])c1
→ 10	16	/	/	0.3	4	/
- CCc1sc(C(=O)Nc2ncccc2O)cc1C
→ -8	5	8	18	4.9	-4	4193
- Cc1ccc(NC(=O)COC(=O)C2C3CC4OC(=O)C2C4C3)cc1Cl (configuration not stated)
→ 2	-3	1	-26	-0.5	6	4692
- Cc1cc(Cl)c(S(=O)(=O)Nc2ccc3c(c2)OCO3)cc1OCC(N)=O
→ /	0	6	-7	1.1	/	3526
- COc1ccc(N2CCN(S(=O)(=O)c3ccc4c(c3)NC(=O)C(C)S4)CC2)cc1 (configuration not stated)
→ 1	7	2	-20	1.7	4	6134
- O=C(c1cc(COc2cccc(C(F)(F)F)c2)on1)N1C[C@H]2CC[C@H]1C2
→ 4	8	0	-62	4.4	12	6059

# The listing continues.
# Order of results: Mtb hypoxia inh growth	Sa ugtP lethal	BJeLR viability	PrP 5UTR inh	RN4220 kill	Mtb hypoxia inh	Autofluor counter
- CCS(=O)(=O)N1Cc2ccccc2CC1C(=O)Nc1nc2ccc(C)cc2s1 (configuration not stated)
→ 0	-6	-14	-14	-1.4	5	9779
- Cc1csc(NC(=O)C2C3C=CC(O3)C2C(=O)O)n1 (configuration not stated)
→ 6	4	-10	-11	4.0	9	3358
- NC(=O)CSc1nnc(-c2cccnc2)n1CCc1ccccc1
→ 9	1	2	-47	3.4	15	8487
- CN(CC(=O)Nc1ccc(F)cc1)C(=O)c1ccc(-c2ccc(Cl)cc2)o1
→ -6	-17	-6	-5	-8.3	-1	5432
- O=C(NN=Cc1cccnc1)c1cc(-c2ccccc2)nc2ccccc12
→ -2	4	/	/	-1.1	7	/
- COc1cccc(N2C(=NC(=O)CCC3CCCC3)SC3CS(=O)(=O)CC32)c1 (configuration not stated)
→ -2	-12	-1	-2	0.8	-1	5832
- CCOc1ccc(S(=O)(=O)N2CCCC(C(=O)NC3CCCC3)C2)cc1 (configuration not stated)
→ 5	3	9	-21	1.2	-1	4796
- Cn1c(SCC(N)=O)nnc1C1CCN(C(=O)NC2CCCCC2)CC1
→ /	7	4	-24	1.2	/	4107
- CCN(C(=S)NCCOC)c1cccc2ccccc12
→ 6	2	-7	-16	1.5	7	4220
- COc1cc(OC)cc(Oc2ccc(S(=O)(=O)N3CCCCC3)cc2[N+](=O)[O-])c1
→ 6	-6	-5	-22	1.2	19	3735

# Next section, starting with the last 2 of the part before.
# Order of results: Mtb hypoxia inh growth	Sa ugtP lethal	BJeLR viability	PrP 5UTR inh	RN4220 kill	Mtb hypoxia inh	Autofluor counter
- CCN(C(=S)NCCOC)c1cccc2ccccc12
→ 6	2	-7	-16	1.5	7	4220
- COc1cc(OC)cc(Oc2ccc(S(=O)(=O)N3CCCCC3)cc2[N+](=O)[O-])c1
→ 6	-6	-5	-22	1.2	19	3735
- Cc1ccc(S(=O)(=O)NCC(=O)N(CC(=O)NC2CCCC2)c2ccc3c(c2)OCCO3)cc1
→ /	-3	-13	-17	-0.3	/	2938
- O=C1CC(N2CCN(c3ccccn3)CC2)C(=O)N1CC(c1ccccc1)c1ccccc1 (configuration not stated)
→ -6	9	-9	-11	4.2	2	3140
- Cc1ccc(S(=O)(=O)CCC(=O)OCC(=O)N(C)Cc2ccccc2)cc1
→ 2	6	/	-12	3.0	2	6031
- CCn1cc(C(=O)N(CCCN2CCOCC2)Cc2ccco2)c(=O)c2ccc(C)nc21
→ /	-12	3	-35	2.0	/	4510
- O=C(CN1C(=O)NC2(CCCC2)C1=O)Nc1ccc(Cl)cc1C(F)(F)F
→ /	/	3	-26	/	/	3511
- O=C(O)c1ccccc1CSc1nnnn1-c1ccccc1
→ -4	6	0	/	2.9	-5	4241
- Cc1cc(NC(=O)CSc2nccn2-c2ccc([N+](=O)[O-])cc2)no1
→ 5	2	0	-15	0.9	3	4360
- COc1ccc(NCc2nnc(SCC(=O)NCc3ccco3)n2-c2ccccc2OC)cc1
→ /	4	1	-9	1.7	/	4448
- CCCCn1c(SCC(=O)NCc2ccco2)nc2cc(S(N)(=O)=O)ccc21
→ /	-3	10	-12	-2.5	/	4612
- NC(=O)Nc1ccc(C(=O)N2CCN(S(=O)(=O)Cc3ccccc3)CC2)cc1
→ 0	1	/	-19	4.0	-11	3475

# Other compounds follow.
# Order of results: Mtb hypoxia inh growth	Sa ugtP lethal	BJeLR viability	PrP 5UTR inh	RN4220 kill	Mtb hypoxia inh	Autofluor counter
- CC(C)C(C)NC(=O)COc1ccc(S(=O)(=O)N2CCOCC2)cc1Cl (configuration not stated)
→ 6	24	-2	-4	10.0	3	3254
- C/C(CC(=O)Nc1ccc(N(C)C)cc1)=N\NC(=O)c1cnccn1
→ /	/	3	-20	/	/	1943
- COc1ccc(CCC(=O)Nc2nc(C)c(C(=O)N(C)C)s2)cc1
→ 2	2	-3	-6	2.8	3	4707
- Cc1ccc(CNC(C)c2ccccc2)cc1 (configuration not stated)
→ 14	3	5	-16	3.0	5	2182
- O=C(NNc1cccc(Cl)n1)Nc1ccccc1F
→ 3	3	2	-22	5.8	-2	4026
- O=S(=O)(NCCc1csc(-c2cccnc2)n1)c1cccs1
→ -1	2	2	-31	1.4	-13	6056
- CC(C)CN(C(=O)CSc1nc(-c2ccccc2)cn1N)c1c(N)n(Cc2ccccc2)c(=O)[nH]c1=O
→ -3	-7	2	-32	-5.1	-4	4466
- Cc1nnc(NC(=O)CSc2ncnc3scc(-c4ccccc4)c23)s1
→ 2	-7	0	-9	3.6	2	21836*
- COc1cccc(C(=O)NNC(=O)CCc2ccccc2)c1
→ 4	3	-4	-30	0.8	-1	3420
- CC(C)CCOC(=O)C1C2C=C[C@]3(CN(Cc4cccs4)C(=O)C13)O2 (some centres not stated)
→ 3	-2	/	/	7.2	5	/

# (next part)
# Order of results: Mtb hypoxia inh growth	Sa ugtP lethal	BJeLR viability	PrP 5UTR inh	RN4220 kill	Mtb hypoxia inh	Autofluor counter
- O=C(Nc1ccc(N2CCCCC2)cc1)C(Cl)c1ccccc1 (configuration not stated)
→ 3	5	3	-18	-6.1	-1	3796
- C#CCCCCCCC#CCN(C)C
→ /	/	-6	12	/	/	1967
- CC1Cc2ccccc2N1C(=O)COC(=O)CNC(=O)c1ccc(Br)o1 (configuration not stated)
→ 11	13	-1	-22	-1.0	17	/
- CC(=O)Nc1ccc2nsnc2c1
→ 3	-2	-1	/	1.6	-3	5643
- COC(=O)c1cn(Cc2ccc(C(F)(F)F)cc2)cc(F)c1=O
→ -9	-1	-12	-15	-2.5	-2	4545
- CCNc1nc(NCC)n2c(SCC(=O)N3CC4(C)CC3CC(C)(C)C4)nnc2n1 (configuration not stated)
→ 1	2	16	-15	4.2	3	6690
- CC(C)(C)c1ccc(OCCOCCn2cnc3ccccc3c2=O)cc1
→ 2	4	0	-16	5.3	-7	4574
- Cc1cccc(N=C2NN=C(c3ccc4c(c3)OCCO4)CS2)c1
→ 6	-2	4	/	7.8	7	7998
- COc1ccccc1CNC(=O)CN1NS(=O)(=O)c2ccccc2C1=O
→ 20	3	/	-7	3.7	2	3904
- CC(C(=O)O)c1ccc(-c2ccccc2)c(F)c1 (configuration not stated)
→ 1&11	-5&-1	-9	-37&-14&-8	13&9.8	8&2	4231&5895

# The results go on.
# Order of results: Mtb hypoxia inh growth	Sa ugtP lethal	BJeLR viability	PrP 5UTR inh	RN4220 kill	Mtb hypoxia inh	Autofluor counter
- Cc1cccc(Nc2nnc(SCC(=O)NCc3cccs3)s2)c1
→ 10	19	15	-12	1.4	4	5397
- Cc1onc(-c2ccccc2)c1C(=O)N/N=C/c1cc2c(cc1Br)OCO2
→ /	/	2	-12	/	/	2464
- C[C@H](NC(=O)OC(C)(C)C)C(=O)NN=Cc1cccc2nccnc12
→ 5	1	/	/	5.6	-8	/
- Cc1ncc([N+](=O)[O-])n1CC(=O)Nc1ccc(Br)cc1
→ 8	-9	0	-13	-4.0	-5	3348
- CC(=O)c1ccc(NC(=O)NC2CCCc3ccccc32)cc1 (configuration not stated)
→ -3	1	10	-32	-3.3	13	5304
- Cc1ccc2c(-c3ccc([N+](=O)[O-])cc3)cc(=O)[nH]c2c1
→ -1	5	-4	-3	5.2	0	5184
- CC(NC(=O)COC(=O)CC(c1ccccc1)c1ccccc1)c1ccccc1 (configuration not stated)
→ -1	29	5	-20	-8.2	-1	2649
- O=C(COc1ccccc1Br)Nc1ccc(S(=O)(=O)N2CCCC2)cc1
→ 1	7	/	-4	-1.1	6	3692

# Of the compounds above, these have a Cl atom.
# Order of results: Mtb hypoxia inh growth	Sa ugtP lethal	BJeLR viability	PrP 5UTR inh	RN4220 kill	Mtb hypoxia inh	Autofluor counter
- O=C(NCCCN1CCOCC1)c1ccc(CSc2ccc(Cl)cc2)cc1
→ 5	-1	0	-5	3.8	-4	3059
- O=C1OCCC1Sc1nnc(-c2ccccc2Cl)n1Cc1ccccc1 (configuration not stated)
→ 12	10	8	-9	5.0	6	2054
- S=c1[nH]cc(-c2ccc(Cl)cc2)n1Cc1ccccc1
→ 11	9	-34	-6	0.3	5	4430
- Cc1ccc(NC(=O)COC(=O)C2C3CC4OC(=O)C2C4C3)cc1Cl (configuration not stated)
→ 2	-3	1	-26	-0.5	6	4692
- Cc1cc(Cl)c(S(=O)(=O)Nc2ccc3c(c2)OCO3)cc1OCC(N)=O
→ /	0	6	-7	1.1	/	3526
- CN(CC(=O)Nc1ccc(F)cc1)C(=O)c1ccc(-c2ccc(Cl)cc2)o1
→ -6	-17	-6	-5	-8.3	-1	5432
- O=C(CN1C(=O)NC2(CCCC2)C1=O)Nc1ccc(Cl)cc1C(F)(F)F
→ /	/	3	-26	/	/	3511
- CC(C)C(C)NC(=O)COc1ccc(S(=O)(=O)N2CCOCC2)cc1Cl (configuration not stated)
→ 6	24	-2	-4	10.0	3	3254
- O=C(NNc1cccc(Cl)n1)Nc1ccccc1F
→ 3	3	2	-22	5.8	-2	4026
- O=C(Nc1ccc(N2CCCCC2)cc1)C(Cl)c1ccccc1 (configuration not stated)
→ 3	5	3	-18	-6.1	-1	3796
